# PK Bst: Pyruvate Kinase; Potency, µM; actives 1.2% (n = 51,000); partly purified Bacillus stearothermophilus pyruvate kinase, luminescence ATP production; ribose 5-phosphate activator present at AC10; in the data active means potency below about 11 µM; inconclusive means mostly about 12 µM to 25 µM; inactive means weaker than that;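 the screen sought inhibitors and activators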;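 note: potency is the fitted concentration of half-maximal effect; scaled between full activation by ribose 5 phosphate and full inhibition by luteolin; about four in five hits inhibit and the cells do not say which; series up to 57 µM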
# TsaE inh: qHTS Assay for Inhibitors of YjeE | AID 605, 2007 | actives 0.05% (n = 71,000) | purified YjeE, fluorescence polarisation of a bound ADP probe | Potency, µM | tRNA threonylcarbamoyladenosine biosynthesis protein TsaE (Escherichia coli (strain …; active = well fitted falling curve; inconclusive = weaker or top-dose-only fall, or a rising curve; inactive = flat or poorly fitted curve;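 note: top concentration of the series not given in the record; excess ADP was the control for the full effect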
#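 Fluorescence polarization of a BODIPY Texas Red–ADP probe (2 uM) bound to purified YjeE (10 uM) was read after 15 min room-temperature incubation with compounds. Loss of polarization marks inhibitors; ADP serves as titrated control.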
# * hit, by the source's call; i = inactive; u = inconclusive; x = not tested or not shown. A portion of the library; rates above refer to the full screens.
TsaE inh,PK Bst,smiles
i,>57,O=C(O)c1oc2ccccc2c1CN1CCN(c2ccccc2)CC1
i,>57,O=C(CSc1nc(C2CCCCC2)n(-c2ccccc2)n1)NCCN1C(=O)CSC1=O
i,>57,CCOC(=O)C1CCCN(c2ncnc3c2cnn3-c2cccc(C)c2)C1 (centres undefined)
i,>57,COc1ccc(CCn2nnnc2C(c2ccc(C)cc2)N2CCN(C)CC2)cc1OC (centres undefined)
i,x,COc1ccc(-n2c(Cn3c(=O)sc4ccccc43)nnc2SCC(N)=O)cc1
i,x,COc1ccc([C@@H]2CC(=O)c3c(O)cc(O[C@H]4O[C@@H](CO[C@H]5O[C@@H](C)[C@@H](O)[C@@H](O)[C@@H]5O)[C@@H](O)[C@@H](O)[C@@H]4O)cc3O2)cc1O
i,x,CN(C)Cc1ccccc1-c1nccc(Nc2ccc(F)cc2)n1
i,>57,Cc1c(C(=O)Nc2ccc(-n3cnnn3)cc2)oc2ccccc12
i,>57,CCOc1cc(C2C3=C(CCCC3=O)N(C)C3=C2C(=O)CCC3)cc(Cl)c1O
i,x,CS(=O)(=O)Nc1ccccc1Oc1ccccc1
i,>57,CCOC(=O)CSc1nnc(CNC(=O)c2ccc(S(=O)(=O)N3CCCCC3)cc2)n1C
i,>57,COc1ccc(CN/C=C2\CCCCC2=O)cc1
i,>57,O=C(CCS(=O)(=O)Cc1ccccc1)N1CCN(Cc2ccccc2)CC1
i,x,Cc1ccccc1-c1nccc(NCc2cccs2)n1
i,>57,CC12CCC(C(=O)NCc3ccccn3)(OC1=O)C2(C)C (centres undefined)

# Part of the list above, comma-delimited.
molecule,TsaE inh,PK Bst
Cc1c(C(=O)Nc2ccc(-n3cnnn3)cc2)oc2ccccc12,i,>57
CCOC(=O)CSc1nnc(CNC(=O)c2ccc(S(=O)(=O)N3CCCCC3)cc2)n1C,i,>57
CCOc1cc(C2C3=C(CCCC3=O)N(C)C3=C2C(=O)CCC3)cc(Cl)c1O,i,>57
O=C(O)c1oc2ccccc2c1CN1CCN(c2ccccc2)CC1,i,>57

# New compounds follow.
TsaE inh,PK Bst,smiles
i,>57,CCCn1c(SCC(=O)Nc2sc(C)c(C)c2C(=O)OC)nc2c1c(=O)n(C)c(=O)n2C
i,>57,Cn1c(=O)c2c(nc(N3CCOCC3)n2Cc2c(F)cccc2Cl)n(C)c1=O
i,>57,CC(=O)c1cccc(NC(=O)CC2SC(N3CCCCC3)=NC2=O)c1 (centres undefined)
i,x,Cc1ccc2oc(-c3ccco3)nc2c1
i,>57,Cn1c(=O)[nH]c(=O)c2c1ncn2CCN1CCOCC1
i,x,Cc1ccc(S(=O)(=O)N[C@H](C(=O)O)C(C)C)cc1
i,>57,Nc1ccc2c(c1)ncn2CCCn1cnc2cc(N)ccc21
i,x,O=C(c1cc(C(F)(F)F)cc(C(F)(F)F)c1)N1CCC2(CC1)CCN(c1ncccn1)CC2
i,x,CCOC(=O)CSc1nc2ccccc2c(=O)[nH]1
i,>57,CCOC(=O)C1CCN(C(=O)c2oc3ccc(S(=O)(=O)N4CC(C)CC(C)C4)cc3c2C)CC1 (centres undefined)
i,x,O=C1CCCN1CCCNc1ncnc2c1[nH]c1ccccc12
i,>57,Cc1cnc(NC(=O)CCCSc2nc3ccccc3s2)s1
i,>57,O=C(CSc1nnc(COc2ccc(F)cc2)o1)N1c2ccccc2CCc2ccccc21
i,>57,O=C(O)CCSc1nc2ccccc2c(=O)[nH]1
i,>57,CC1c2[nH]c3ccccc3c2CCN1C(=O)Nc1ccccc1 (centres undefined)
i,>57,CC(C)CCNC(=O)C(c1ccco1)N(Cc1cccs1)C(=O)Cn1nnc2ccccc21 (centres undefined)
i,>11,c1coc(-c2nc(-c3ccncc3)no2)c1
i,x,CCn1c(CNC(=O)C(C)(C)C)nc2ccccc21
i,x,CN(CP(=O)(O)CCc1ccccc1)S(C)(=O)=O
i,>57,NC(=O)c1ccccc1OCC(=O)NS(=O)(=O)c1ccccc1
i,>57,CCCCC(C(=O)NCCC(C)C)N(CCCN1CCOCC1)C(=O)c1snc(C(N)=O)c1N (centres undefined)
i,>57,Brc1cccc(-c2nnc3sc(CN4CCCCC4)cn23)c1
i,x,C(=N\n1cncn1)/c1ccc(N2CCOCC2)cc1
i,x,COc1ccc(S(=O)(=O)NCCSc2ccccc2)cc1OC
i,x,NC(=O)c1ncn([C@@H]2O[C@@H](CO)[C@@H](O)[C@H]2O)c1O
i,x,CS[C@@H](CC(=O)O)C(=O)O
i,>57,CCC(Sc1nc(C)cc(=O)[nH]1)C(=O)Nc1nc2c(s1)CCCC2 (centres undefined)
i,i,Cc1ccc(-c2noc(C3CCN(C(=O)Nc4ccc(C#N)cc4)CC3)n2)o1
i,x,CCOC(=O)Nc1c(O)ccc2oc(C)c(-c3ccccc3)c12
i,x,O=C(CSc1nc2ncccc2[nH]1)Nc1ccc2c(c1)OCCO2
i,x,C=CCn1c(C(C)NC(=O)COC)nc2ccccc21 (centres undefined)
i,x,O=c1cnc2cnc(N3CCOCC3)nc2n1Cc1ccc(F)cc1
i,>57,Fc1ccc(C(c2nnnn2Cc2ccco2)N2CCN(C3CCCCC3)CC2)cc1 (centres undefined)
i,x,COCCCN(C(=O)Nc1ccccc1)C(C)c1ccncc1 (centres undefined)
i,>57,O=C(O)c1[nH]c2ccccc2c1NS(=O)(=O)Cc1ccccc1
i,>57,Cc1oc2c(c1C(=O)NCc1ccccc1)CCCC2
i,x,COc1cc(NS(=O)(=O)c2ccc3c(c2)oc(=O)n3C)cc(OC)c1OC
i,>57,CCOC(=O)C1CCCN(C(=O)Cn2cccc2C(=O)c2ccccc2)C1 (centres undefined)
i,x,C/C=C/C=C/C=O
i,>57,CCN(CC)c1nc(N(CC)CC)[nH]c(=O)n1
i,>57,Nc1cc(N)cc(-c2nc3ccccc3[nH]2)c1
i,>57,O=C(CN1CCC(n2nnc3cc(F)ccc32)CC1)NCCc1nc2ccccc2[nH]1
i,>57,COC(=O)c1ccccc1NC(=O)c1cc(OC)cc(OC)c1
i,>57,O=C(CCCOc1ccc(Cl)cc1Cl)NCCCO
i,>57,COc1ccc(-n2c(C)nc3cc(C(=O)N4CCOCC4)ccc32)cc1
i,x,O=C(c1cnccn1)N1CCC2(CCCN(c3ccncc3)C2)CC1
i,>57,Cc1cccc2cc(CN(CCCO)C(=O)Nc3ccccc3Cl)c(=O)[nH]c12
i,>57,O=C1NC(Nc2nccs2)(C(F)(F)F)C(=O)N1CCc1ccccc1 (centres undefined)
i,>57,CC(=O)NCCn1c(SCc2cc(=O)n3cc(Cl)ccc3n2)nc2ccccc2c1=O
i,>57,O=C(Cn1ncc2c(=O)oc3ccccc3c21)N1CCN(C(=O)c2ccco2)CC1
i,x,CCCC(C)n1[nH]c(=O)c2c(C)cc(C)nc21 (centres undefined)
i,>57,COc1cc(CC(=O)Nc2ccc(S(=O)(=O)N(C)C)cc2)cc(OC)c1OC
i,>57,CCN(CC(=O)NC)S(=O)(=O)c1ccc(Br)cc1
i,>57,Cc1c(C(=O)NCc2ccco2)oc2ccc(S(=O)(=O)N3CCC4(CC3)OCCO4)cc12
i,>57,O=C(O)Cn1c2c(c3ccccc31)CCCC2
i,2.3*,CC(C)COc1ccc(-c2nnc(-c3ccncc3)o2)cc1
i,>57,COc1cccc(CNC(=O)CCn2c(=O)oc3ccccc32)c1
i,x,O=C(NC1CCCCC1)N1CCCc2ccccc21
i,>57,Cc1ccccc1CSCC(=O)NC(=O)NCc1ccco1
i,x,CC(C)C[C@@H](CC(=O)N[C@@H](CCCN)CC(=O)N[C@@H]1CCNC[C@H]1C(=O)N[C@H](CC(=O)N[C@@H](CCC(=O)O)CC(=O)O)Cc1ccccc1)NC(=O)[C@@H]1CCCC[C@H]1N

# Already shown: entries from further up.
TsaE inh,PK Bst,smiles
i,x,O=C(c1cnccn1)N1CCC2(CCCN(c3ccncc3)C2)CC1
i,>57,Cc1cccc2cc(CN(CCCO)C(=O)Nc3ccccc3Cl)c(=O)[nH]c12
i,>57,O=C1NC(Nc2nccs2)(C(F)(F)F)C(=O)N1CCc1ccccc1 (centres undefined)
i,>57,CC(=O)NCCn1c(SCc2cc(=O)n3cc(Cl)ccc3n2)nc2ccccc2c1=O
i,>57,O=C(Cn1ncc2c(=O)oc3ccccc3c21)N1CCN(C(=O)c2ccco2)CC1
i,x,CCCC(C)n1[nH]c(=O)c2c(C)cc(C)nc21 (centres undefined)

# Additional compounds.
TsaE inh,PK Bst,smiles
i,>57,COc1ccc(-n2nnnc2SCC(=O)NCc2ccco2)cc1OC
i,>57,Cc1cc(NC(=O)CSc2nccn2-c2ccc(F)cc2)no1
i,x,Cc1ccc(S(=O)(=O)N2CCN(Cc3ccccc3C(F)(F)F)CC2)cc1
i,x,O=C(Nc1ccon1)c1cc2c(s1)CCCCCC2
i,>57,CCn1c(SCC(=O)c2ccc(F)cc2)nnc1-c1ccoc1C
i,i,O=C(NC1CCCC1)C(c1ccsc1)N(Cc1ccco1)C(=O)Cc1cccs1 (centres undefined)
i,x,Cc1nc2ccc(N)cc2s1
i,>57,Cn1c(SCCN2CCCCC2)nnc1-c1ccccc1Br
i,x,O=C(c1ccccc1)c1ccc(C(=O)N2CCN(c3ccc(F)cc3)CC2)o1
i,>57,O=C(Nc1ncc(C(F)(F)F)cc1Cl)C1COc2ccccc2O1 (centres undefined)
i,x,COc1ccc(N(CC(=O)Nc2cc(OC)ccc2OC)S(=O)(=O)c2c(C)nn(C)c2C)cc1
i,>57,CCCCN(CCCC)Cc1ccc(N)cc1
i,x,N[C@@H](Cc1c[nH]c2ccccc12)C(=O)O
i,x,O=C(Nc1cccc2ccccc12)N1CCN(Cc2ccccc2)CC1
i,>57,CCn1nc(CC(=O)Nc2nnc(CC(=O)N3CCCCC3)s2)c2ccccc2c1=O
i,>57,C=CCSc1ncccc1C(=O)NCc1ccccc1
i,i,CC(C)(O)c1cc(=O)sc2nc3ccccc3n12
x,>26,CN(C)CCCN1C(=O)C(O)=C(C(=O)c2cc3ccccc3o2)C1c1ccccn1 (centres undefined)
i,>57,Cc1ccc(-n2c(SCC(=O)NCC3CCCO3)nc3n[nH]c(C)c3c2=N)cc1Cl (centres undefined)
i,>57,COc1ccc2c(CC(=O)OCC(=O)Nc3ccc4c(c3)OCO4)coc2c1
i,x,COc1ccc2c(c1OC)C(=O)N(c1nccs1)C2
i,>57,CC(=O)Nc1c(C(=O)C2CC2)oc2ccccc12
i,>57,CNC(=O)C1CC(=O)N(Cc2ccc3c(c2)OCO3)C(=Nc2ccc(F)cc2)S1 (centres undefined)
i,>57,Cc1cc(NC(=O)C2C3C(=O)N(CCC(C)C)C(C(=O)NCc4ccccc4)C34C=CC2(C)O4)no1 (centres undefined)
i,>57,CCOC(=O)N1CCN(C(=O)CSCc2nc(-c3ccccc3F)oc2C)CC1
x,i,c1ccc2c(c1)[nH]c1c(N3CCC4(CC3)OCCO4)ncnc12
i,>57,COc1cc(OC)c(OC)cc1CN1CCN(c2ccccc2OC)CC1
i,i,O=C(NCc1ccco1)c1cccn2c(=O)c3sccc3nc12
i,>57,COCc1nnc(NC(=O)CC(C)c2ccccc2)s1 (centres undefined)
i,x,CC(C)N(C(=O)C1CC(=O)OC12CCCCC2)C(C)C (centres undefined)
i,x,Cc1ccc(C)c(OCCCC(=O)O)c1
i,x,COc1ccc2cc(CCNC(=O)C(C)C)c(=O)[nH]c2c1
i,>57,Cc1nn(C(=O)c2ccco2)c(C)c1CN1C(=O)c2ccccc2C1=O
i,>57,Cc1ccc(C(=O)CCNc2ccc(F)c(Cl)c2)o1
i,>57,CCCOc1ccc2oc(=O)c3c(c2c1)CCCN3C(=O)CN1CCN(C(=O)c2ccco2)CC1
i,>57,COCCn1c(SCC(=O)Nc2cccc(OC)c2)nnc1-c1ccccc1
i,>57,O=C(O)CSc1nnc(Cc2ccccc2)n1-c1ccccc1
i,x,COc1ccccc1N1CCN(C[C@@H]2CN3C(=O)N(C)c4ccccc4C3=N2)CC1
i,>11,COc1cccc(C(=O)Nc2ccc(NC(C)=O)cn2)c1
i,>57,O=C(c1ccco1)N1CCN(c2ccc(Cl)c(Cl)c2)CC1
i,>57,CCCOc1ccc(-c2nnn(CC(=O)c3ccc4c(c3)OCCO4)n2)cc1
i,>57,CCOc1cc2[nH]c(=S)n(CCCN3CCN(C)CC3)c(=O)c2cc1OCC
i,x,NNC(=O)c1ccc[n+](CCc2ccccc2)c1
i,u,Nc1nncn1C(=O)c1c(Cl)cccc1Cl
i,>57,CS(=O)(=O)Nc1ccc(C(=O)NCc2ccc3c(c2)OCO3)cc1

# Compound profiles, as listed above. Screens in order: TsaE inh	PK Bst
# Cc1nn(C(=O)c2ccco2)c(C)c1CN1C(=O)c2ccccc2C1=O in the list: i	>57
# COCCn1c(SCC(=O)Nc2cccc(OC)c2)nnc1-c1ccccc1 in the list: i	>57

# New compounds follow:
TsaE inh,PK Bst,smiles
i,>57,CSc1nc(-c2ccccc2)nc(SC)c1C(C)=O
i,>57,CCCN1CCN(CCCNC(=O)Cn2nc(-c3ccc(C)cc3)ccc2=O)CC1
i,>57,Cn1c(=O)c2c(nc(NCCO)n2CCc2ccccc2)n(C)c1=O
i,>57,Cc1oc(-c2ccccc2F)nc1CN1CCC(C(=O)NCc2cccnc2)CC1
i,x,Cc1cc(NS(=O)(=O)c2ccccc2)cc(Cl)c1O
i,x,COc1ccc(-n2c(Cc3cccn3C)nnc2SCC(=O)Nc2ccc3c(c2)OCCO3)cc1
i,x,Cc1cnc(CNc2ncnc3ccc(-c4cccc(C#N)c4)cc23)cn1
i,x,O=S(Cc1ccc(Cl)cc1)CC(O)COCc1ccc(Cl)cc1 (centres undefined)
i,>57,CCC(OC(=O)c1cccs1)C(=O)NCc1ccc2c(c1)OCO2 (centres undefined)
